MARV entry inh – qHTS for inhibitors of binding or entry into cells for Marburg Virus; Marburg virus pseudotyped entry inhibition, cell reporter; control for the full effect not named in the record; about a third of the inactives were read at about 46 µM; Potency, µM (series often up to 37.8 µM), inactives show top-dose activity change, negative = inhibition, actives largely listed as inhibitors; hit rate 1.8% among 300,000; active = well fitted inhibition curve with a large enough effect; inconclusive = small, poorly fitted or top-dose-only effect, or effect the other way; inactive = flat fitted curve, though single readings scatter; tested in HEK293 cells; about a fifth of its hits are not listed in these tables; note: % is set by controls: 0 for no effect and ±100 for the full control effect; luciferase read-out
Cruzain noTriton – qHTS Assay for Promiscuous and Specific Inhibitors of Cruzain (without detergent) | Cruzipain (Trypanosoma cruzi), P25779 | purified cruzain, Z-FR-AMC fluorescence, no detergent | Potency, µM, for inactives: max response, negative = inhibition, hits mostly inhibitors | hit rate 2.3% among 200,000 | AID 1476, 2009;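 note: plate controls were enzyme without inhibitor for no effect and buffer without enzyme for full effect; nearly all actives have a fitted effect of over 40% in size; top concentration of the series not given in the record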
Target sequence (P25779 123-467 limits assumed): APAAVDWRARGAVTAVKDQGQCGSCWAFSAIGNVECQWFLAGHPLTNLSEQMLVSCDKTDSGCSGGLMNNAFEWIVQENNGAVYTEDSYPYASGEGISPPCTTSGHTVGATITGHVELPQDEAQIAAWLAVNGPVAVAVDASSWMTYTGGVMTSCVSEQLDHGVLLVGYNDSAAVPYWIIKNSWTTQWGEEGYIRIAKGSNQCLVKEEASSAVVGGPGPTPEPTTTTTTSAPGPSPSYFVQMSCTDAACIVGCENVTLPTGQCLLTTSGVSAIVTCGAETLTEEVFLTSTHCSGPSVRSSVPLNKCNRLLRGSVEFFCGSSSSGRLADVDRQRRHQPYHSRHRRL
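Purified cruzain at 1.5 nM, pre-incubated 15 min with compound at room temperature in 100 mM sodium acetate pH 5.5, 5 mM DTT, 0.00005% Triton X-100. Reaction started with 2 uM Z-FR-AMC; AMC fluorescence increase over 60 s gives rate.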
SARS PLP yeast – qHTS of Yeast-based Assay for SARS-CoV PLP; S. cerevisiae expressing SARS-CoV PLpro, growth rescue; control for the full effect not named in the record; hit rate 0.19% among 330,000; Potency, µM (doses to about 32.9 µM), inactives show at the highest dose activity, positive = growth rescue; active means well fitted rising curve with a large enough effect; inconclusive means small, poorly fitted or top-dose-only effect; inactive means no such curve, though single readings can be large or run the other way; note: 0% is about no effect; nearly all actives have a fitted effect of over 55% in size; growth read by luminescence after 48 h
RE007 growth inh – qHTS Assay for Inhibitors of the HIV-1 protein Vpr. S. pombe RE007 Vpr strain, BacTiter-Glo ATP luminescence, 24 h; control for the full effect not named in the record. hit rate 0.21% among 360,000. Potency, µM (doses to about 92.2 µM), for inactives: at the highest dose activity change, negative = less growth. AID 651644, 2012; active = well fitted falling curve with a large enough effect; inconclusive = small, poorly fitted or top-dose-only effect; inactive = no such curve, though single readings can be large or run the other way;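 note: % is set by controls: 0 for no effect and ±100 for the full control effect; nearly all actives have a fitted effect of over 50% in size; the assay follows cell death caused by Vpr and the record does not say whether a fall means rescue or toxicity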
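Fission yeast RE007 carrying one integrated HIV-1 vpr copy, seeded at OD 0.01 in PMG+AL medium with 23 nL pinned compound. Grown 24 h at 30 degrees; viability read by BacTiter-Glo luminescence after 5 min.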
Cruzain inh Det – qHTS Assay for Promiscuous and Specific Inhibitors of Cruzain (with detergent). Cruzipain (Trypanosoma cruzi), P25779. purified cruzain, Z-FR-AMC fluorescence, 0.01% Triton. Potency, µM, inactives show max response, negative = inhibition, actives largely listed as inhibitors. hit rate 0.43% among 200,000;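 note: plate controls were neutral wells for no effect and buffer without enzyme for full effect; nearly all actives have a fitted effect of over 40% in size; top concentration of the series not given in the record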
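Z-FR-AMC hydrolysis (2 uM substrate) by cruzain (1.5 nM) monitored kinetically at ex 360/em 450 nm after 15 min room-temperature compound exposure; 0.01% Triton X-100, pH 5.5, 5 mM DTT.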
2A StopGo – High Throughput Screening for Foot and Mouth Disease Virus Antivirals | human cells with a luciferase reporter of 2A StopGo recoding; control for the full effect not named in the record | Potency, µM (titrated, usually from 57.9 µM), inactives show top-dose signal change, negative = less light | hit rate 1.2% among 410,000; active = well fitted falling curve with a large enough effect; inconclusive = small, poorly fitted or top-dose-only effect; inactive = no such curve, though single readings can be large or run the other way; tested in HEK293T cells; note: % is set by controls: 0 for no effect and ±100 for the full control effect; nearly all actives have a fitted effect of over 45% in size; luciferase light after 4 h
Lassa entry inh – qHTS for Inhibitors of binding or entry into cells for Lassa Virus | Lassa virus pseudotype entry inhibition, cell reporter; control for the full effect not named in the record | Potency, µM (top dose mostly 37.9 µM), for inactives: top-dose activity change, negative = inhibition, most hits filed as inhibitors | hit rate 1.2% among 300,000; active means well fitted inhibition curve with a large enough effect; inconclusive means small, poorly fitted or top-dose-only effect, or effect the other way; inactive means flat fitted curve, though single readings scatter; tested in HEK293 cells; note: % is set by controls: 0 for no effect and ±100 for the full control effect; nearly all actives have a fitted effect of over 50% in size; luciferase read-out
NS1 inh – qHTS Assay for Inhibitors of Influenza NS1 Protein Function. hit rate 0.4% among 270,000. S. cerevisiae slowed by influenza A NS1, growth recovery by OD600. Potency, µM (series often up to 46.1 µM), inactives show at the highest dose activity, positive = more growth; active means well fitted rising curve with a large enough effect; inconclusive means small, poorly fitted or top-dose-only effect; inactive means no such curve, though single readings can be large or run the other way; note: nearly all actives have a fitted effect of over 50% in size
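Compounds were scored for reversing the slow growth caused by influenza A NS1 in S. cerevisiae, measured by optical density at 600 nm. Assay medium contained 2% galactose at pH 6.0; NS1-free yeast of the same strain were the positive control.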
Active calls of the source: *; u = inconclusive; x = no result given; [ ] = dose if it differs, or a comment. Unless noted, calls come from the whole dose curve; as a rule, active = well fitted curve in the direction sought with a large enough effect; inconclusive = small, poorly fitted or top-dose-only effect, or another doubt; inactive = no such curve, though single readings can be large; an effect the other way counts as inactive or inconclusive. Potency is the fitted concentration of half-maximal effect. An unsorted share of the library; overall some 4.6% were active at least once.

SMILES	MARV entry inh	Cruzain noTriton	SARS PLP yeast	RE007 growth inh	Cruzain inh Det	2A StopGo	Lassa entry inh	NS1 inh
O=C(CN1C(=O)NC2(CCCCCCC2)C1=O)NC1CCCc2ccccc21 (stereo not given)	35%	1%	-13%	6%	-1.9%	-18%	17%	5%
COc1ccc2nc(SCC(=O)Nc3ccc(S(=O)(=O)Nc4nccc(C)n4)cc3)[nH]c2c1	18%	-1%	-3%	2%	-1.3%	62%[activator]	3%	-12%
CC(C)(C)NC(=O)CSc1nnc(CN2CCCCCC2=O)n1-c1ccccn1	u	-3%	0%	4%	3.5%	5%	20%	-12%
Cn1c(SCC(=O)Nc2ccccc2)nnc1-c1ccccc1	x	-2%	x	x	-1.1%	29%	-1%[46.1 µM]	x
COc1cccc(CNCCc2c[nH]c3ccccc23)c1OCc1ccccc1F	7.3µM*	-3%	-1%	-3%	-2.2%	x	u	2%
CC(=O)N/C(=C/c1ccc([N+](=O)[O-])cc1)C(=O)O	22%[46.1 µM]	x	0%	7%	x	1%	-18%	3%
COc1cc(CNC(=O)c2ccc3c(c2)c(C)c(C)n3Cc2cccc(C)c2)cc(OC)c1OC	x	-19%	x	x	0.8%	0%	3%[46.1 µM]	x
Cc1ccc(OCCn2cc(/C=C3\C(=O)NN(c4ccccc4)C3=O)c3ccccc32)cc1	8%	10µM*	7%	0%	-7.0%	-20%	u	20%
N#Cc1ccsc1NC(=O)CN1CCN(S(=O)(=O)c2ccc3ccccc3c2)CC1	u	u	18%	-2%	-3.7%	-6%	-2%	19%
CN(C)C(CNC(=O)c1ccc(S(=O)(=O)Nc2ccccc2F)cc1)c1ccco1 (stereo not given)	u	x	1%	-10%	x	-7%	3%	x
O=C(CN1C(=O)NC2(CCCC2)C1=O)NNC(=O)c1ccc(F)cc1	-2%[46.1 µM]	x	-6%	-11%	x	-12%	-13%	x
Cc1ccccc1NC(=O)Nc1ccccc1Br	-1%	4%	0%	-1%	4.5%	x	3%	4%
COc1cccc(CC2(CO)CCCN(Cc3[nH]c4ccc(C)cc4c3C)C2)c1 (stereo not given)	x	x	-1%	-7%	x	7%	x	2%
CCn1cc(CN2CCC(n3nccc3NC(=O)c3ccccc3OC)CC2)cn1	x	x	3%	9%	x	1%	x	7%
COc1ccc(N2CCN(Cc3cc4c(cc3O)CCC4)CC2)cc1	u	2%	-1%	-10%	1.2%	u	-15%	8%
O=C(CCl)N(C/C=C/c1ccccc1)c1ccc2c(c1)OCCO2	17%[46.1 µM]	x	-7%	34%	x	25µM*	u	x
COc1ccc(CCNC(=O)COC(=O)c2cc(OC)c(OC)cc2OC)cc1	-8%[14.2 µM]	x	-3%	11%	x	-17%	7%	x
CCOC(=O)CSc1ncc(-c2ccc([N+](=O)[O-])cc2)[nH]1	u	-3%	-20%	x	-5.7%	-15%	29%	-21%
CCC(=O)N1CCc2cc(CNS(=O)(=O)c3ccc(Cl)s3)ccc21	x	-21%	x	x	-1.1%	-2%	-14%[46.1 µM]	x
Cc1ncc(CO)c2c1OC(C)(C)OC2	14%	-14%	u	-4%	3.7%	x	1%	2%
CCCCOc1cccc(C2c3c(oc4ccccc4c3=O)C(=O)N2c2ccccn2)c1 (stereo not given)	3%[46.1 µM]	18%	x	x	0.2%	-18%	16%[46.1 µM]	x
CCOc1cc(/C=C2\C(=N)N3N=CSC3=NC2=O)ccc1OS(=O)(=O)c1ccccc1	12%	x	-1%	-3%	x	u	u	0%
c1ccc(Nc2ncnc3sc4c(c23)CCC4)cc1	-4%	-7%	2%	-14%	-5.2%	x	22%	-13%
C=CCn1c(SCC(=O)Nc2ccc3c(c2)OCO3)nnc1-c1cc(Br)ccc1O	u	-25%	x	16%	-9.5%	-16%	17%	-51%
CC(C)NC(=O)C1CCCN(S(C)(=O)=O)C1 (stereo not given)	9%	4%	6%	9%	5.0%	x	12%	0%
Cc1cc(C(=O)N2CCCC(C(=O)c3ccc4ccccc4c3)C2)nn1C (stereo not given)	u	x	-1%	9%	x	-29%	u	-2%
Cc1ccc(-c2[nH]c3cc(C(N)=O)ccc3c(=O)c2O)cc1	x	x	u	7%	x	-9%	x	-4%
O=C(CN1CCN(c2cnn(-c3ccccc3)c(=O)c2Cl)CC1)NC1CCS(=O)(=O)C1 (stereo not given)	-4%	x	4%	-16%	x	-25%	u	x
O=S(=O)(c1ccccc1)N1CCC(O)(CN2CCN(c3ccccc3)CC2)CC1	u	x	1%	11%	x	-12%	0%[46.1 µM]	-5%
CC(C)(C)c1cc(NC(=O)c2ccco2)no1	u	x	-5%	u	x	-6%	0%[46.1 µM]	-20%
CSc1ccc(CCNC(=O)c2ccc(CS(=O)Cc3ccccc3Cl)o2)cc1 (stereo not given)	x	x	2%	8%	x	u	x	-10%
CC(C)CCn1c(=S)[nH]c2ncccc2c1=O	-14%	u	11%	30%	0.0%	4%	11%	-4%
CCOc1ccc(CNC(=O)c2ccc3c(c2)nc2n3CCOC2)cc1OC	x	-6%	x	x	7.5%	5%	2%[46.1 µM]	x
Cc1nn(-c2ccc3nnc(C)n3n2)c(C)c1CCC(=O)Nc1ccc(OC(F)(F)F)cc1	x	-7%	x	x	-0.5%	-15%	u	x
COC(=O)c1ccc(OC)c(CN2C(=O)N(c3ccc(C(C)=O)cc3)S(=O)(=O)c3ccccc32)c1	x	-18%	x	x	1.9%	u	u	x
CCC(=O)c1ccc(OCC(=O)c2ccc3c(c2)NC(=O)CO3)cc1	x	x	0%	-7%	x	-8%	x	3%
Cc1ccc(CN2CN(S(=O)(=O)c3cccs3)c3nc4ccccc4nc32)cc1	19%	u	5%	18%	-0.6%	32%[activator]	u	-1%
CCC1(CC)NC(=S)NC1=S	18%	x	x	1%	x	4%	-5%	x
COc1ccc(S(=O)(=O)N2CCN(C)CC2)cn1	-4%[46.1 µM]	x	2%	10%	x	-9%	-10%[46.1 µM]	9%
COCc1cc(/C=N\NC(=O)COc2ccccc2)ccc1OC	12%	-1%	-7%	-4%	-6.9%	-7%	4%	-15%
Cc1cc(=O)oc2cc3c(cc12)OCCN3	4%	u	4%	-7%	u	-15%	-12%	-15%
COc1cccc(-c2nc(N3CCC(C)CC3)c3ccccc3n2)c1O	u	-6%	-8%	-28%	2.5%	-25%	-43%	20µM*
COn1c(=O)c(-c2ccc(Cl)cc2)[n+]([O-])c2ccccc21	-5%	-14%	0%	-15%	0.1%	2%	22%	-4%
Cc1ccc(S(=O)(=O)N(C)c2ccc(C(=O)N(C)Cc3nc4ccccc4c(=O)[nH]3)cc2)cc1	u	x	-2%	17%	x	-13%	6%	x
Cc1ccc(CNC(=O)c2ccc(N3CCC4(CC3)CC(c3ccccc3)=NO4)c(NC(=O)c3ccco3)c2)cc1	x	x	8%	262%	x	-7%	x	29%
O=S(=O)(Nc1cccc(Cl)c1)c1cccc(-n2cnnn2)c1	12%	x	1%	-14%	x	101%[activator]	u	x
Cc1ccc(CC(=O)OCC(=O)c2ccc[nH]2)cc1C	25%	x	10%	-8%	x	30%[activator]	11%	x
Oc1ccccc1/C=N/Nc1cc(N2CCCC2)nc(N2CCCC2)n1	2.3µM*	u	-10%	-21%	-13%	14%	u	-25%
CCOC(=O)c1c(/N=C/c2ccc(C)cc2O)sc2c1CCC2	16%	-4%	5%	10%	-7.7%	-12%	-13%	3%
O=C(c1ccccc1)N1CCN(CC2CC=CCC2)CC1 (stereo not given)	5%	0%	4%	-6%	2.0%	-19%	2%	1%
CCNCc1cc([N+](=O)[O-])ccc1OCC	x	x	-1%	0%	x	-18%	x	2%
COC(=O)/C(C#N)=C/c1c(N2CCCCCC2)nc2ccccn2c1=O	10%	x	-3%	2%	x	-18%	u	-5%
CCn1c(C)nc2cc(C(=O)NNC(=S)Nc3ccccc3Cl)ccc21	u	-6%	17%	-12%	-0.6%	41%[activator]	3%	-1%
C=CCNc1nc2c(c(=O)[nH]c(=O)n2C)n1CCOc1ccccc1	u	x	1%	17%	x	-30%	-1%	1%
COc1ccc(NC(C)=O)cc1S(=O)(=O)Nc1ccccc1C(=O)N1CCCC1	8%[46.1 µM]	x	-1%	19%	x	0%	14%	5%
Cc1noc(C(=O)Nc2ccc(F)c(Cl)c2)c1Cl	11%[46.1 µM]	x	4%	107%	x	51%[activator]	19%	-2%
CC(C)OP(=O)(OC(C)C)C(C)NC(=O)Cc1ccccc1 (stereo not given)	7%[46.1 µM]	x	2%	13%	x	3%	21%[46.1 µM]	x
CCOC(=O)c1sc(NC(=O)c2cccc(S(=O)(=O)N3CCc4ccccc43)c2)c(C#N)c1C	x	x	-1%	1%	x	u	x	3%
CSC1=NSC2=NC(=O)/C(=C/c3coc4ccccc4c3=O)C(=N)N12	u	u	-66%	40µM*	-24%	u	15%	-12%
CC(=O)NCCNS(=O)(=O)c1ccc(C)c([N+](=O)[O-])c1	2%[46.1 µM]	x	-2%	10%	x	2%	11%	x
(listing goes on)
SMILES	MARV entry inh	Cruzain noTriton	SARS PLP yeast	RE007 growth inh	Cruzain inh Det	2A StopGo	Lassa entry inh	NS1 inh
CCOC(=O)Nc1ccc2c(c1)N(C(=O)CN)c1ccccc1CC2	x	x	0%	3%	x	-19%	x	u
Clc1ccc(OCc2nc3ccccc3[nH]2)cc1	u	x	-15%	-19%	x	6%	u	x
O=C(Nc1nccs1)C1CCN(S(=O)(=O)c2cccnc2)CC1	x	-1%	-14%	9%	1.4%	-14%	x	5%
COC(=O)/C(=C\Nc1ccc(Cl)cc1Cl)NC(=O)c1ccc(Cl)cc1Cl	-8%	-2%	x	-5%	-0.1%	u	13%	-2%
CCCc1cc(=O)[nH]c(SCC(=O)NC2CCCCC2)n1	23%	0%	-7%	-2%	6.1%	x	24%	u
